Bioassay records from PubChem BioAssay.
D2 PAM – human D2 receptor positive allosteric modulation; P14416; DiscoveRx D2 beta-arrestin cells, luminescence, 90 min; 100% = 57 uM dopamine signal; potentiation, % (test concentration not listed); 360,000 tested, 0.23% active; AID 624464; active = potentiation of 50% or more; inconclusive = 30% to 50%; inactive = 30% or less;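 also: compound concentration not given in the record; tested on top of an EC20 dose of dopamine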
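PathHunter D2 cells, attached overnight at 37 deg C, received compound in DMSO plus dopamine at EC20 (50 nM final) for 90 min at 37 deg C. Beta-arrestin recruitment was read as luminescence after 1 h with detection reagent at ambient temperature.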
gsp ag – gsp mutant agonism | gsp mutant cells, cAMP HTRF, 30 min; control for the full effect not named in the record | Potency, µM (doses to about 76.9 µM), for the others: at the highest dose activation (cAMP increase), most hits filed as activators | 340,000 tested, 0.13% active | AID 624287; active = well fitted activation curve with a large enough effect; inconclusive = small, poorly fitted or top-dose-only effect, or another doubt; inactive = no such curve, though single readings can be large or run the other way; cell line not stated here;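 also: phosphodiesterase inhibitor Ro 20-1724 added with compounds to block cAMP breakdown; potency is read from the fitted curve at half-maximal effect; nearly all actives have a fitted effect of over 60% in size; about a fifth of the inactives were tested at one dose only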
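Cells in DMEM/10% FBS with G418 were pretreated with compounds in DMSO plus […] (300 uM stock) for 30 min at 37C. cAMP was measured by HTRF (cAMP-d2 plus anti-cAMP antibody-K) after 30 min at room temperature.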
Sfp inh – blocks B. subtilis Sfp PPTase activity; Q9F4F7; Biochemical Sfp PPTase activity, qHTS; Potency, µM, inactives show max response, negative = inhibition, most hits filed as inhibitors; 310,000 tested, 3.5% active; AID 1490; active = well fitted inhibition curve with a large enough effect; inconclusive = small, poorly fitted or top-dose-only effect, or another doubt; inactive = no such curve, though single readings can be large or run the other way;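 also: the enzyme is Sfp with the accession as filed and its product quenches rhodamine fluorescence; potency is read from the fitted curve at half-maximal effect; 0% = enzyme reaction without inhibitor and -100% = no enzyme wells; top concentration of the series not given in the record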
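Fluorescence-quenching assay with 15 nM Sfp, 5 uM rhodamine-CoA and 12.5 uM BHQ-2-labelled ybbR peptide in pH 7.6 Hepes/MgCl2 buffer. Enzyme was pre-incubated with compound for 15 min at room temperature. Rate was taken from the 30-min fluorescence change (525/598 nm).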
TRPV1 PAM – potentiators of human vanilloid receptor 1 (TRPV1) | Q8NER1 | 320,000 tested, 0.02% active | potentiation, % at 8.33 µM | AID 540277 | TRPV1-expressing cells, Fluo-8 calcium influx, capsaicin EC20 potentiation; host cell line not named in the record; control for the full effect not named in the record; active means potentiation above 80%; inconclusive means 30% to 80%; inactive means below 30%; also: 0% is about no effect
Target sequence (Q8NER1 whole entry, looked up): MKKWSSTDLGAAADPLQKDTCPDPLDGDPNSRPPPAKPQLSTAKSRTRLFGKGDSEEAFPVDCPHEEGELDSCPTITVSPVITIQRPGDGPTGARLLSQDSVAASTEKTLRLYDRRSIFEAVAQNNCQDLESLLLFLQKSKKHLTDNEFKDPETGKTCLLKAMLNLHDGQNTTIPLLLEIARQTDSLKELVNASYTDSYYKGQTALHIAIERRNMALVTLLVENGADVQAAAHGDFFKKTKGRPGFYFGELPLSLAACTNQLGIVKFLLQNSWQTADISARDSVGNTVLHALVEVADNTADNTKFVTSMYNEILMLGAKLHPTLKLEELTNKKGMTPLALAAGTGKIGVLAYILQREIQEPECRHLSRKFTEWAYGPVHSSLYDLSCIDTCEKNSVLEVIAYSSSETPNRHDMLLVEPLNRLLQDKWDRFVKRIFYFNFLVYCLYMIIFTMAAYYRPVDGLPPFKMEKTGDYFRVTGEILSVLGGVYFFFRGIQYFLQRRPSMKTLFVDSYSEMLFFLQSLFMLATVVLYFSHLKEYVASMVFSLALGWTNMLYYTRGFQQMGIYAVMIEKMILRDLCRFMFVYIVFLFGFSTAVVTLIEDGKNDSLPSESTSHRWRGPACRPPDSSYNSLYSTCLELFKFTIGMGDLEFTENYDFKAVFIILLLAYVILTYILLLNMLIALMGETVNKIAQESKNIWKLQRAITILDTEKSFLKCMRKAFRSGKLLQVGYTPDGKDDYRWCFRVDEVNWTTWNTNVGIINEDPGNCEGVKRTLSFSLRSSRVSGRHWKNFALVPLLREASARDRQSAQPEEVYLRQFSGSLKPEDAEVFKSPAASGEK
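Cells expressing TRPV1 were dye-loaded with Fluo-8 and read kinetically: 10 s baseline, 3 min after compound (agonist portion), then 2 min after EC20 capsaicin (allosteric enhancer portion). Calcium-bound dye fluorescence at 480/520 nm.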
Menin-MLL FL inh – menin-MLL binding inhibition, fluorescein peptide; Fluorescence polarization, fluorescein-MLL peptide displacement from menin; FP activity change, % at 61.4 µM; 290,000 tested, under 10 active; AID 1766; inconclusive = falling polarisation curve, or a change in total fluorescence; inactive = total fluorescence flat and polarisation flat or rising; no compound was filed as active; the % refers to the polarisation; negative = inhibition;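 also: % of control where 0% means no effect; inhibitors lower the polarisation; unlabelled MLL peptide was the positive control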
ClpP mod – qHTS Assay for Activators of ClpP; ATP-dependent Clp protease proteolytic subunit (Bacillus subtilis (strain 168)), P80244; purified B. subtilis ClpP, FRET peptide cleavage, 20 min; Potency, µM (top dose mostly 57.5 µM), inactives show top-dose activity change, negative = active; 340,000 tested, 1.9% active; AID 651965, 2013; active = well fitted falling curve with a large enough effect; inconclusive = small, poorly fitted or top-dose-only effect; inactive = no such curve, though single readings can be large or run the other way; also: potency is read from the fitted curve at half-maximal effect; the source files actives as falling curves though it sought activators and does not explain the sign; nearly all actives have a fitted effect of over 65% in size; many hits overshoot -100%
Target sequence (P80244 whole entry, looked up): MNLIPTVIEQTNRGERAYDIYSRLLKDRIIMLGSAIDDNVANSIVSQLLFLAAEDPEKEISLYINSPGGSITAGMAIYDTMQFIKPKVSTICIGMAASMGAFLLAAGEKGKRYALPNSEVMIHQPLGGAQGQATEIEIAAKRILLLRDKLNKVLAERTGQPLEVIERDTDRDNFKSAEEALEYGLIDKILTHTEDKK
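Buffer: 100 mM Tris/HCl pH8, 100 mM KCl, 0.05% low protease BSA, 2.5% glycerol, 0.01% Tween-20. ClpP 10 microg/mL final; 20 min RT; delta FRET normalized to ADEP and DMSO controls.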
gsp antag – gsp mutant antagonism; gsp-mutant cells, cAMP HTRF, 30 min; control for the full effect not named in the record; Potency, µM (doses to about 76.9 µM), for inactives: at the top dose activity change, negative = inhibition, most hits filed as inhibitors; 340,000 tested, 0.4% active; AID 624288; active = falling curve of any shape with a large fitted effect; inconclusive = falling curve, mostly with a smaller effect; inactive = flat or rising curve; cell line not stated here;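 also: intracellular cAMP measured with PDE inhibitor Ro 20-1724 present during compound exposure; potency is read from the fitted curve at half-maximal effect; % is scaled to controls: 0 for no effect and ±100 for the full control effect; nearly all actives have a fitted effect of over 65% in size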
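G418-selected cells were plated in DMEM/10% FBS for 16-24 h at 37C, then treated with compounds plus the PDE inhibitor […] (300 uM solution added) for 30 min at 37C. Intracellular cAMP was measured by HTRF after 30 min lysis at room temperature.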
* marks the source's active call; other numbers are inactive results; u = inconclusive; x = no result given; & = joins results of further samples; [ ] = another dose, or the depositor's remark.

SMILES	D2 PAM	gsp ag	Sfp inh	TRPV1 PAM	Menin-MLL FL inh	ClpP mod	gsp antag
Cc1ccc(Cc2cnc(NC(=O)C3CCCO3)s2)cc1 (stereo not given)	3	12%	0%	-11	0.9	-0.6%	-6%
COc1ccc(NC2CCCN(C(=O)CCc3cccc(F)c3)C2)cc1 (stereo not given)	-23	-2%[15.4 µM]	2%	-10	x	-1.7%	-7%
Cc1cccn2cc(CCNC(=O)c3ccc(Br)o3)nc12	-9	1%	-6%	-6	-0.2	-9.8%	0%
COc1ccccc1CCC(=O)OCC(=O)Nc1ccc(C)c(S(=O)(=O)N2CCCCC2)c1	-7	1%[15.4 µM]	x	11	x	-1.2%	2%
O=C(CN1CCCCCC1)Nc1ccccc1C(=O)Nc1ccccc1	-17	-6%	x	-19	x	0.6%	-4%
CCc1cccc(N(C(=O)c2csnn2)C(C(=O)NC(C)(C)CC)c2ccccn2)c1 (stereo not given)	-5	-27%	15%	11	3.9	-1.4%	5%
COC1(OC)N=C(N)C2(C#N)C(c3cccc(Oc4ccccc4)c3)C12C#N (stereo not given)	-16	14%	-7%	-6	-1.1	1.0%	2%
CCCCOC(=O)c1ccc(NC(=O)c2c(N)n(C)c(=O)[nH]c2=O)cc1	-35	x	x	x	x	22%	11%
CCN(CC)C(=O)C(=O)N/N=C/c1ccc(C(=O)O)cc1	-5	7%	6%	6	2.4	0.7%	-2%
COCCN1C(=O)C(=O)/C(=C(/O)c2ccc(S(=O)(=O)N3CCOCC3)cc2)C1c1cccc([N+](=O)[O-])c1 (stereo not given)	1	-17%	8%	6	-2.6	-1.3%	6%
Cc1cc(/C=N/NC(N)=S)c(O)c(/C=N/NC(N)=S)c1	-8	-9%[15.4 µM]	11%	-5	u	x	12%
O=C(COc1ccc(Cl)cc1)NCCSc1ccccc1	-2	-28%	22%	-7	2.7	-0.1%	2%[15.4 µM]
COc1ccc(/C=C(\NC(=O)c2ccccc2)C(=O)NCC2CCCO2)cc1 (stereo not given)	6	-2%[15.4 µM]	-3%	-8	-19	-1.9%	2%
CCCn1c(-c2cccs2)nc2nc3ccccc3nc21	-6	3%	6%	19	1.5	7.5%	0%
O=C(CN(c1ccccc1F)S(=O)(=O)c1ccccc1)NC1CCCCCC1	-9	0%	2%	-10	2.5	2.6%	5%
COc1ccc(S(=O)(=O)N2CCN(C)CC2c2ccccc2)cc1OC (stereo not given)	3	-6%	x	8	x	0.5%	15%
COC(=O)c1ccc(NC(=O)CSc2n[nH]c(-c3ccncc3)n2)cc1	0	8%	2%	12	-2.2	-0.3%	-16%
CCCNC(=O)Nc1ccccc1SC	-16	-6%	-15%	-35	0.2	-0.8%	27%
COc1ccccc1CNS(=O)(=O)c1c(C)[nH]c(C)c1C(=O)N1CCCCC1	-11	u	14%	12	3.9	-0.7%	4%
COc1cccc(NC(=O)CN(C)C(=O)C2CCN(C(=O)c3ccccc3C)CC2)c1	2	12%[15.4 µM]	x	-1	x	-1.0%	-2%
COc1cc(C2C(C(=O)c3ccco3)=C(O)C(=O)N2CC2CCCO2)ccc1O (stereo not given)	0	-1%[15.4 µM]	4%	-3	6.7	x	8%
O=C1c2ccccc2-c2cccc(C(=O)N3CCCCC3)c21	-7	8%[15.4 µM]	5%	-7	8.2	x	1%
CN(C)c1ccc(/C=N/n2ncc3ccccc32)cc1	10	-7%	-20%	-4	5.2	u	-7%
CCOC(=O)Nc1ccc2c(c1)N(C(=O)C(C)N1CCCC1)c1ccccc1CC2 (stereo not given)	u	-47%[inhibitor]	10%	-18	4.6	-3.0%	-14%
CCOC(=O)Cn1nnnc1C(C(C)C)N(Cc1cccs1)Cc1cc2cc(C)ccc2[nH]c1=O (stereo not given)	-4	24%	-10%	7	-1.2	u	-18%
O=C(Nc1ccc(Cl)cc1)Nc1ccccc1C(=O)O	-2	4%[15.4 µM]	38%[activator]	1	1.8	x	-30%
CCCCn1c(N)c(N(CC)C(=O)c2ccc(N3CCCC3=O)cc2)c(=O)[nH]c1=O	-2	-2%[15.4 µM]	x	1	x	x	-3%
Cc1ccc2nc(Cl)c3cc(C(=O)NCCCN4CCCC4)sc3c2c1	-2	-7%	4%	24	-1.6	x	1%
Cn1c(NC(=O)c2ccc3c(c2)OCO3)cc(=O)n(C)c1=O	-10	-5%	4%	-7	-1.9	-8.8%	-5%
COc1ccc(N(C(=O)C(C)C)S(=O)(=O)c2ccc3c(c2)n(C)c(=O)n3C)cc1	21	8%	6%	8	-0.3	-0.9%	-5%
CC1C(=O)N2CCCc3cc(S(=O)(=O)NCc4ccccc4Cl)cc1c32 (stereo not given)	-3	17%	10%	-3	x	-3.2%	-8%
CCCCNS(=O)(=O)c1ccc2nc(SCC(=O)Nc3sccc3C#N)[nH]c2c1	u	-2%	63µM*	7	u	-2.2%	-19%
CC(Oc1ccccc1)C(=O)Nc1nc2c(s1)C(=O)CC(C)(C)C2 (stereo not given)	-7	19%	9%	23	3.6	-24%	-7%
COC(=O)c1ccc(NC2(C#N)C(=O)Nc3ccccc32)cc1 (stereo not given)	-57	-36%[inhibitor]	15%	-14	-2.3	-1.5%	-16%
NC(=O)c1c(NC(=O)CSc2nnc(-c3ccco3)n2N)sc2c1CCCC2	-6	2%	5.6µM*	1	u	-1.1%	-12%
Cc1cc(=O)[nH]c(N/N=C/c2ccccc2Cl)n1	-6	3%	-7%	-1	-2.4	-6.0%	6%
COc1ccc(N2C(=O)CCC2=O)c(OC)c1	-5	-9%[15.4 µM]	14%	3	3.0	-27%	-3%
COc1ccc(-n2c3c(cc(C(=O)NC4CCSC4=O)c2=O)C(=O)CC(C)(C)C3)cc1 (stereo not given)	5	-36%[inhibitor]	17%	-5	0.9	-11%	-19%
COC(=O)CSc1nc(NC#N)nc(NC(C)(C)C)n1	-3	-17%	24%	3	2.5	-0.6%	11%
CCC(=O)N[C@@H]1CC(C(C)(C)NC(=O)CC)CC=C1C (stereo not given in full)	-8	-41%[inhibitor]	18%	4	0.5	-0.8%	-6%
Cc1cccc(NC(=O)C2CCN(S(=O)(=O)c3ccc(Cl)cc3)CC2)n1	-21	-46%[inhibitor]	x	12	x	10%	u
O=C(C1CCN(S(=O)(=O)c2cccc3cccnc23)CC1)N1CCN(C2CCCCC2)CC1	-8	1%	5%	12	9.6	-1.2%	3%
CC1(C)CC(O)(CCNCc2ccc3c(c2)OCO3)CCO1 (stereo not given)	-3	-14%	9%	2	1.7	2.6%	2%
COc1cc(OC)cc(C(=O)N2CCC(N3CCCCCC3)CC2)c1	-8	-1%	-13%	u	-2.6	-0.1%	-4%
Cc1ccc(S(=O)(=O)N2Cc3ccccc3CC2C(=O)NC(C)(C)C)cc1 (stereo not given)	-1	-20%	14%	-10	-2.8	-0.9%	-17%
COCCCN(CC(=O)Nc1ccc(N2CCOCC2)cc1)S(=O)(=O)c1ccc(Cl)cc1	16	-7%[15.4 µM]	-1%	4	5.7	x	7%
C=CC[n+]1ccc2ccccc2c1C	-6	-2%[15.4 µM]	17%	-13	0.4	x	13%
COc1ccccc1OCC(=O)Nc1cc2c(cc1C(=O)O)OCCCO2	-3	-4%[15.4 µM]	79µM*	8	-2.1	0.5%	-26%
CCOc1ccc(C(=O)NC2CCN(C(=O)NCc3ccccc3)CC2)cc1	6	1%	3%	-12	6.1	1.8%	-1%
CCN(CC)CCCNC(=O)c1cn(C)c2ccc(S(=O)(=O)N(C)C3CCCCC3)cc2c1=O	-17	25%	-1%	-5	1.1	-3.8%&0.0%	13%
O=C(CCc1ccc(S(=O)(=O)NCc2ccccc2)cc1)N1CCN(Cc2ccc3c(c2)OCO3)CC1	2	2%	1%	6	1.0	0.1%	-20%
CCCC1CCC(c2ccc(C(=O)NN)cc2)CC1 (stereo not given)	-4	-38%[inhibitor]	7%	15	3.0	-1.2%	-3%
COc1ccc(NC(=O)c2ccc3[nH]c(C)c(C)c3c2)cc1	-6	13%	-14%	5	-7.1	-0.6%	-7%
Cc1c([N+](=O)[O-])cc(N2C(=O)C=CC2=O)cc1[N+](=O)[O-]	1	3%[15.4 µM]	x	x	x	1.4%	11%
Cc1cccc(C(=O)OC2CCOC2=O)c1O (stereo not given)	-5	-24%[15.4 µM]	4%	-6	-4.8	x	13%
COCCn1c(SCc2ccccc2F)nc2ccccc2c1=O	-5	-6%[15.4 µM]	-4%	-28	0.7	x	-3%
COc1ccc(C2c3[nH]c4ccccc4c3CCN2CCCn2cccn2)c(C)c1C (stereo not given)	-19	12%[15.4 µM]	-12%	7	-5.0	x	-7%
Cn1nnc(NC(=O)c2ccccc2)n1	-8	0%	11%	-5	0.9	1.0%	5%
Cc1onc(-c2ccccc2)c1C(=O)Nc1ccc(S(=O)(=O)N2CCCCC2)cc1	-1	-6%	13%	-4	-2.5	0.7%	-8%
CCOC(=O)c1ccc(NCc2ccc3c(c2)OCO3)cc1	4	16%	56µM*	0	1.6	-6.8%	u

Going on with the list.
SMILES	D2 PAM	gsp ag	Sfp inh	TRPV1 PAM	Menin-MLL FL inh	ClpP mod	gsp antag
O=C(O)C(CO)N=Cc1c(O)c2ccccc2oc1=O (stereo not given)	-1	2%[15.4 µM]	11%	-4	-1.1	x	5%
Cc1ccc(C(=O)COC(=O)CCC(=O)NC2CCCCC2)cc1[N+](=O)[O-]	-26	-35%[15.4 µM]	14%	7	0.2	x	8%
CCCCCOc1ccc(/C=C/c2c([N+](=O)[O-])c(=O)n(C)c(=O)n2C)cc1	5	0%[15.4 µM]	14%	-14	-4.5	x	-2%
O=C(CC1C[C@H](C(=O)N2CCOCC2)[C@@]2(CCC3CCCC3)c3[nH]c4ccccc4c3CCN2C1=O)NCc1cccc(C(F)(F)F)c1 (stereo not given in full)	-6	x	x	x	x	-1.9%	9%
O=C(OCc1cc(=O)n2ccsc2n1)C1(c2ccccc2)CC1	0	15%	x	x	x	-29%	x
O=C(CN1CCN(Cc2ccccc2F)C1=O)NCc1ccco1	-6	-28%	2%	1	1.6	1.3%	7%
